PINK1 expr mod – modulators of PINK1 expression; PINK1 immunofluorescence, high-content cytometry, 24 h; Potency, µM (series often up to 76.6 µM), inactives show at the top dose activation (PINK1 increase), actives largely listed as activators; AID 624263; 0.2% of 410,000 active; active = well fitted activation curve with a large enough effect; inconclusive = small, poorly fitted or top-dose-only effect; inactive = flat fitted curve, though single readings scatter; cell line not stated here;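 note: potency is the fitted concentration of half-maximal effect; % of control where 0% means no effect; nearly all actives have a fitted effect of over 65% in size; a mitochondrial uncoupler was the plate control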
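A stable cell line was treated with compounds at 5 concentrations for 24 hours, with CCCP as control. PINK1 levels and mitochondrial localization were measured by immunofluorescence with mitochondrial, cell and nuclear markers after fixation, read by laser-scanning cytometry.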
Six1-Eya2 blk – inhibitors of human Six1/Eya2 interaction | 0.56% of 360,000 active | AlphaScreen GST-Six1/His-Eya2 binding, biochemical; hits give low values; control for the full effect not named in the record | Q15475+O00167 | AID 651725 | activity change, % (test concentration not listed); in the data active = activity change below about -65%; inconclusive = about -30% to -65%; inactive = above about -30%; note: % is set by controls: 0 for no effect and ±100 for the full control effect; compound concentration not given in the record
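AlphaScreen luminescence read after one hour at 37 °C in darkness. Pin-transferred compounds met GST-Six1 and His-Eya2 protein (5X stock 250 nM/500 nM) plus glutathione donor and Ni-chelate acceptor beads (5X, 50 ug/mL).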
TRPML1 ag – human mucolipin-1 channel agonism; Q9GZU1; TRPML1-expressing cells, Ca2+ dye fluorescence, FDSS; host cell line not named in the record; reference of the full effect not given here; activation, % (concentration not given with the values); 0.12% of 410,000 active; in the data active = activation above about 50%; inconclusive = about 30% to 50%; inactive = below about 30%; note: 0% is about no effect; the text of the record puts the active cut at 80%
Target sequence (Q9GZU1 whole entry, looked up): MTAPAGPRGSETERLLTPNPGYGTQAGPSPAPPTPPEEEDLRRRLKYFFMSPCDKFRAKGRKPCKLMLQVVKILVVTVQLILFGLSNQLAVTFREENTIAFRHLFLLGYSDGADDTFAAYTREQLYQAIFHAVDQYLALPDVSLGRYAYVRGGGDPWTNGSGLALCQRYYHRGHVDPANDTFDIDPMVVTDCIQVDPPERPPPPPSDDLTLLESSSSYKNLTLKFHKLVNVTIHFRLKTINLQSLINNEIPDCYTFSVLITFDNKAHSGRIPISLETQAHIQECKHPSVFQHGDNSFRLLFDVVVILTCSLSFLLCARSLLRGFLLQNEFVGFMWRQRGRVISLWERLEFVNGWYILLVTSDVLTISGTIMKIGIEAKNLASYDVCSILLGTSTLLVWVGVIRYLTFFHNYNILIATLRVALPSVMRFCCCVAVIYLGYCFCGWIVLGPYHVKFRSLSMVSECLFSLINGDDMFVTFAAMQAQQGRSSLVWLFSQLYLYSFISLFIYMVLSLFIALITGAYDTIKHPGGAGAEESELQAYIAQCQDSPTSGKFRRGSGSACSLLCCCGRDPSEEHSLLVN
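TRPML1-DL cells, Tet-induced overnight (~16 h, 37 degrees C), loaded 45-90 min at room temperature with Ca8 no-wash calcium dye plus quencher. FDSS fluorescence: 10 s baseline, compound pin-transfer, 110 s agonist read, then EC80 54-4 (4uM final) and 110 s antagonist read.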
TRPML1 inh – inhibitors of human TRPML1 channel; Q9GZU1; TRPML1-inducible cells, Ca2+ dye fluorescence, FDSS; hits give low values; inhibition of EC80 agonist-evoked calcium signal; activity change, negative = inhibition, % (no concentration beside the values); 0.02% of 390,000 active; in the data active means activity change below about -50%; inconclusive means about -30% to -50%; inactive means above about -30%;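 note: stimulus is agonist 54-4 at its EC80 concentration; % is set by controls: 0 for no effect and ±100 for the full control effect; compound concentration not given in the record; the text of the record puts the active cut at -80%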
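TRPML1-DL cells, Tet-induced overnight (~16 h, 37 °C) at 1,500 cells/well, were loaded with Ca8 no-wash dye plus quencher for 45-90 min at room temperature. Compounds were pinned during FDSS kinetic reading; agonist 54-4 at EC80 (4 uM final) then added.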
D2 agonist – agonists of human D2 dopamine receptor (beta-arrestin) | P14416 | DiscoveRx PathHunter D2 beta-arrestin, luminescence, 90 min; 100% = 57 uM dopamine signal | activation, % (test concentration not listed) | 0.084% of 360,000 active | AID 624465; in the data active = activation above about 40%; inconclusive = about 15% to 40%; inactive = below about 15%; note: compound concentration not given in the record; the text of the record calls up to 30% inactive
Target sequence (P14416 whole entry, looked up): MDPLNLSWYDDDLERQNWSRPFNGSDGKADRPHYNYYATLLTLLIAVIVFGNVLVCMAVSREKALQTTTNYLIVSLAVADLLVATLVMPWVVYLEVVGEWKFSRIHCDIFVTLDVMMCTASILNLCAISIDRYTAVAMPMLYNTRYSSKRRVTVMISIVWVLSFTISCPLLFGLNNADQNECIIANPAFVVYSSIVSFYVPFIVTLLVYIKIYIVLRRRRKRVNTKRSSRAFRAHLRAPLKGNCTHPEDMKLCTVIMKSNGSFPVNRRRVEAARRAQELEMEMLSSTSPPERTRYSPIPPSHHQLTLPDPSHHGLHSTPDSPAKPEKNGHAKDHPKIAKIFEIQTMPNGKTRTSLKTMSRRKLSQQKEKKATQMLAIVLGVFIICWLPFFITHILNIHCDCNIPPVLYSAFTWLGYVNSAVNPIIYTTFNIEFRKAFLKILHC
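Agonist mode: compounds alone added to overnight-plated D2 PathHunter cells for 90 min at 37 C, with 57 uM final dopamine (EC100) defining full response. Beta-arrestin recruitment detected by chemiluminescent reagent, read after 1 h at ambient temperature.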
D2 potentiator – positive allosteric modulators of human D2 dopamine receptor; P14416; DiscoveRx D2 beta-arrestin cells, luminescence, 90 min; 100% = 57 uM dopamine signal; potentiation, % (concentration not given with the values); 0.23% of 360,000 active; AID 624464; active = potentiation of 50% or more; inconclusive = 30% to 50%; inactive = 30% or less;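 note: compound concentration not given in the record; tested on top of an EC20 dose of dopamine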
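PathHunter D2 cells, attached overnight at 37 deg C, received compound in DMSO plus dopamine at EC20 (50 nM final) for 90 min at 37 deg C. Beta-arrestin recruitment was read as luminescence after 1 h with detection reagent at ambient temperature.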
Starred values were filed as active, the others as inactive; ? = inconclusive; · = no result given; [ ] = dose if it differs, or a comment.

SMILES	PINK1 expr mod	Six1-Eya2 blk	TRPML1 ag	TRPML1 inh	D2 agonist	D2 potentiator
Cc1ccnc2c1ccc1c(C)ccnc12	0.7%	-92.1*	0.5	-7.0	-5.3	-24.7
CC(CCC(=O)O)(c1ccc(O)cc1)c1ccc(O)cc1	4.3%	0.0	-0.4	-7.1	-3.8	0.6
O=C1CN(C(=O)COC(=O)C23CC4CC(CC(O)(C4)C2)C3)c2ccccc2N1	-0.2%	4.0	-0.9	1.6	-2.7	-5.4
O=C(N/N=C/C=C/c1ccc2c(c1)OCO2)C(O)c1ccccc1 (configuration not stated)	0.1%	-25.0	-0.4	6.1	1.8	2.9
CN(C)CCOc1nc(-c2ccccc2)nc2c1oc1ccccc12	-1.6%	-23.0	0.3	11.1	0.2	-33.5
CCNC(=S)NCc1ccc2c(c1)OCO2	-0.7%	1.6	-0.4	1.0	-0.5	-9.4
CCc1ccc(NC(=O)COc2ccc3c(c2)OCO3)cc1	-0.8%	-1.5	0.3	-0.5	-4.0	-19.3
COc1ccc(CCN=C(N)NS(=O)(=O)c2ccc3ccccc3c2)cc1	-0.7%	0.7	0.6	26.8	-0.7	-7.9
COc1ccc(Br)cc1S(=O)(=O)NCc1ccccn1	0.7%	1.5	0.4	2.6	-0.2	-0.5
C=CCSc1nc(N(CC)CC)c2sccc2n1	7.0%	16.4	0.9	17.9	-1.0	-5.7
O=C(NCCc1ccccc1)c1ccc2c(c1)N(Cc1ccc(F)cc1Cl)C(=O)CS2	6.7%	·	0.4	15.3	·	·
Cc1cc(OCC(=O)Nc2cccc(S(=O)(=O)NC3=NCCCCC3)c2)ccc1Cl	1.8%	-4.4	-0.9	-6.0	-2.2	-2.5
O=C(NC1c2ccccc2-c2ccccc21)c1ccccc1	6.0%	3.9	2.0	?	-1.8	-3.2
Cc1ccc(C(=O)N/N=C/c2ccc3c(c2)OCO3)o1	1.7%	-2.8	0.3	10.0	-2.0	-2.1
CC(=O)Nc1c(Br)cc2c(c1Br)Cc1cc(Br)ccc1-2	?	-0.5	1.6	34.0	2.1	-4.0
Cc1nonc1C(=O)N/N=C/c1cccc(O)c1	-2.8%	7.6	0.1	-4.2	-4.6	-0.8
CCOC(=O)C(C)NC(=O)c1c(C)oc2ncn(CC(C)C)c(=O)c12 (configuration not stated)	1.2%	·	-1.0	-25.3	·	·
Oc1c(Br)cc(Br)c(/C=N/n2c(-c3ccccc3)n[nH]c2=S)c1Br	0.6%	-15.9	0.1	21.4	0.5	-2.5
Cc1cccc(C)c1NC(=O)c1csc2c1CCCC2	-0.6%	·	0.1	39.0	·	·
Cc1ccc([C@H]2C(C(=O)O)=CC[C@@H](c3ccc(C(C)C)cc3)N2S(=O)(=O)c2ccc(C)cc2)cc1	0.5%	-6.5	0.6	2.6	-0.8	·
N#CCCN(C(=O)COC(=O)C1CCN(S(=O)(=O)c2ccc3c(c2)OCCO3)CC1)c1ccccc1	2.2%	1.1	-0.6	4.4	-3.3	20.2
NS(=O)(=O)c1ccc(CCNC(=O)COC(=O)c2nc(Cl)ccc2Cl)cc1	1.8%	14.4	0.8	-26.7	8.5	3.4
Cc1cccc(Nc2nnc(-c3ccc(N4CCOCC4)c([N+](=O)[O-])c3)c3ccccc23)c1	-1.8%	-29.6	-0.2	8.7	-2.9	-14.3
COc1ccc(CCNC(=O)NC2CCCCC2)cc1	-2.1%	12.6	-0.3	-0.8	-0.9	1.1
COc1ccc(C(C)(C)C)cc1NC(=O)CNc1cccc2ccccc12	?	-5.8	0.7	37.0	2.0	-8.0
Cc1cc([N+](=O)[O-])nn1CC(=O)N1CCOCC1	0.0%	-8.1	0.4	7.5	-1.3	-0.5
CCOC(=O)NN1C(=O)c2ccccc2NC1c1ccc(OC)c(OC)c1 (configuration not stated)	-0.9%	0.0	0.0	-19.0	-2.7	-1.1
COc1cccc(N2CC(NC(=O)C(=O)c3c(C)[nH]c4ccccc34)CC2=O)c1 (configuration not stated)	2.3%	-4.5	0.0	5.1	-7.1	-40.9
CC(C)NC(=O)C1CCN(C2CCN(C(=O)/C=C/c3cccs3)CC2)CC1	1.5%	9.2	0.8	12.8	-1.4	-9.7
Cc1cc(C)n2[nH]c(=O)c(N=Nc3ccccc3)c2n1	2.0%	5.6	-0.8	-3.4	-0.2	7.6
OCCCNc1nc(-c2ccccc2)c2cc(Cl)ccc2n1	-1.5%	10.0	0.9	-10.8	-3.6	-1.1
Cc1c(C#N)c(O)n(CCO)c(=O)c1N=Nc1ccc(S(N)(=O)=O)cc1	-1.4%	-6.5	-0.4	-2.4	-2.3	-19.4
COC(=O)c1ccc2nc(-c3ccccc3)c(Cc3ccccc3C(F)(F)F)n2c1	7.3%	1.2	-0.5	·	·	·
CCCCn1c(-c2sccc2C)n[nH]c1=S	1.0%	3.6	2.1	-17.1	-7.3	-5.3
O=c1c2ccccc2ncn1/N=C/c1ccccc1	-1.3%	12.7	-0.4	-4.2	-2.3	-3.7
CCN(CC)c1ccc(C(=O)NCc2ccc3c(c2)CCN3C(C)=O)cc1	1.0%	·	2.2	22.6	·	·

A draw from above in order of SMILES length, lowest first:
SMILES	PINK1 expr mod	Six1-Eya2 blk	TRPML1 ag	TRPML1 inh	D2 agonist	D2 potentiator
O=c1c2ccccc2ncn1/N=C/c1ccccc1	-1.3%	12.7	-0.4	-4.2	-2.3	-3.7
Cc1cc(C)n2[nH]c(=O)c(N=Nc3ccccc3)c2n1	2.0%	5.6	-0.8	-3.4	-0.2	7.6
COc1ccc(C(C)(C)C)cc1NC(=O)CNc1cccc2ccccc12	?	-5.8	0.7	37.0	2.0	-8.0
CCN(CC)c1ccc(C(=O)NCc2ccc3c(c2)CCN3C(C)=O)cc1	1.0%	·	2.2	22.6	·	·
Cc1c(C#N)c(O)n(CCO)c(=O)c1N=Nc1ccc(S(N)(=O)=O)cc1	-1.4%	-6.5	-0.4	-2.4	-2.3	-19.4

Other results.
SMILES	PINK1 expr mod	Six1-Eya2 blk	TRPML1 ag	TRPML1 inh	D2 agonist	D2 potentiator
CCN(CC(=O)Nc1ccccc1C(F)(F)F)C(=O)CCOc1ccccc1C	-0.9%	0.0	1.7	7.1	-2.8	-3.9
Fc1c(F)c(F)c(NC2=NCCCCC2)c(F)c1F	2.1%	-6.4	-0.4	-6.7	-6.0	-7.4
O=C(Nc1ccc(N2CCOCC2)c(Cl)c1)c1cccc(F)c1	-0.2%	5.6	-0.4	30.8	0.1	2.2
Cc1ccc(-c2cc(-c3ccco3)c(C#N)c(=O)[nH]2)cc1	18.0%	-2.2	0.6	6.7	-1.1	-5.2
CC1CCCN(Cc2cn3c(-c4cccc(Br)c4)nnc3s2)C1 (configuration not stated)	-3.9%	·	0.8	-0.3	·	·
O=C(Cc1cccs1)Nc1cccc(-c2ccc3nncn3n2)c1	0.6%	-7.7	-0.2	-8.8	-0.2	4.6
C[C@H](NC(=O)[C@@H]1CCCN1C(=O)[C@@H]1CCCN1)c1ccccc1	0.3%	12.6	-0.3	·	·	·
CN(C)c1ccc(S(=O)(=O)NCC(=O)N2CCN(c3ccccc3)CC2)cc1[N+](=O)[O-]	-0.9%	-13.7	-0.3	-6.2	-7.6	-11.7
CCOC(=O)C1=C(C)NC(C)=C(C(=O)OCC)C1C(=O)OCC(=O)NCc1ccccc1	1.6%	4.7	0.4	-17.4	3.3	-2.3
CS(=O)(=O)N(CC(=O)N1CCN(Cc2ccccc2)CC1)c1cccc(Cl)c1	-0.8%	2.1	0.4	-8.5	2.2	-3.0
Cc1ccc(C2(O)CN(c3ccccc3)C3=[N+]2CCS3)cc1 (configuration not stated)	2.3%	4.1	-0.3	10.3	-6.4	-25.4
COCCNC(=O)c1cnn(-c2cccc(C)c2)c1-n1cccc1	-0.3%	·	0.2	-2.9	·	·
Cc1ccc(S(=O)(=O)Nc2ccc3cc([N+](=O)[O-])ccc3c2[N+](=O)[O-])cc1	?	-19.0	0.0	-5.3	-6.2	-18.1
COc1ccc(-c2csc(NC(=O)CSc3nc(C)nc4sc(C(=O)O)c(C)c34)n2)cc1	7.1%	-14.8	-1.1	-4.8	-2.0	-2.8
O=C(Cc1c[nH]c2ccccc12)N1CCN(S(=O)(=O)c2ccc(Cl)cc2)CC1	-2.1%	0.6	0.8	0.0	0.0	-14.2
CCOc1ccc(OCC)c(Nc2nc3ccccc3c3nnc(C)n23)c1	-0.3%	·	0.4	18.4	·	·
COc1ccc(Cn2nnnc2C(c2ccccc2Cl)N2CCN(C3CCCC3)CC2)cc1 (configuration not stated)	1.1%	-1.5	2.0	-0.3	-1.9	-7.8
CSc1nc(=O)n(-c2ccccc2)c(C)c1C(C)=O	?	4.0	-0.6	-0.5	-4.3	-12.9
O=S(=O)(c1ccc(F)cc1)N1CCN(Cc2ccccc2C(F)(F)F)CC1	0.2%	20.0	1.5	-14.5	0.2	-15.5
COc1ccc(CN2CCC(C)CC2)cc1OCc1ccccc1	0.3%	-6.6	0.7	36.1	-4.9	-6.2
Cc1cc(C)c(NC(=O)Cn2nnc3sc4c(c3c2=O)CCC(C(C)(C)C)C4)c(C)c1 (configuration not stated)	1.6%	·	2.1	3.4	·	·
NC(=O)[C@@H]1CCCNc2c(I)cc([N+](=O)[O-])cc2C(=O)N[C@@H](CO)C(=O)N[C@@H](Cc2ccc(O)cc2)C(=O)N1	2.9%	-5.9	0.0	13.0	-4.2	-8.2
O=C(COC(=O)c1cccc(-n2cnnn2)c1)c1ccccc1	-0.4%	5.6	5.2	17.5	-1.0	-0.8
Clc1nnc2ccc(-c3ccccc3)nn12	-8.8%[38.3 µM]	-2.9	-0.6	2.9	1.3	6.0
CCCCN(C)Cc1c(O)ccc2c(-c3ccccc3)cc(=O)oc12	0.2%	7.2	0.1	5.9	-0.8	-42.8
CCOCCCNC(=O)C(NC(=O)c1ccc(=O)[nH]c1)c1ccc(Cl)cc1 (configuration not stated)	1.2%	-3.8	-0.5	15.6	1.2	-0.8
O=C(Nc1ccc2c(c1)OCCO2)c1ccccn1	3.6%	-3.4	1.4	14.3	1.9	?
Cc1ccc(OCC(=O)Nc2ccccc2F)cc1	0.6%	16.5	-0.4	-0.1	1.0	0.8
CC(O)CN(Cc1cccc(Cl)c1)CC(C)O (configuration not stated)	7.5%[38.3 µM]	3.2	0.4	-15.4	-0.2	-1.3
Fc1ccccc1OCCCn1ccnc1	1.4%	0.1	-0.5	-6.2	-1.9	-3.4
CCOC(=O)c1c(NC(=O)c2cccs2)sc(C)c1CC	-1.3%[38.3 µM]	100.8	2.2	18.2	-1.3	-15.1
CCNC(=O)NC(=O)C(C)OC(=O)CCCc1nc2ccccc2s1 (configuration not stated)	0.8%	4.3	-0.2	1.4	1.2	0.0
Cc1ccccc1C(=O)c1cccn1CC(=O)NCCCN1CCCCC1	1.4%	-0.6	-0.9	39.2	-4.0	-26.6
